Screens (PubChem)
HIV TAR-Tat: HIV-1 TAR-Tat binding disruption. HIV-1 TAR RNA, Tat peptide displacement FRET; hits give high values. actives 0.6% (n = 100,000). AID 1259389. z-score (concentration not given with the values);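 note: score is relative to mean and SD of negative controls; some compounds called inactive have numbers as strong as hits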
CDC25B CDK2 inh: human CDC25B-CDK2/CyclinA binding inhibition | actives 0.72% (n = 94,000) | AID 1259370 | HTRF CDC25B-CDK2/CyclinA binding, anti-His/anti-Flag; hits give high values | z-score (no concentration beside the values);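 note: score is relative to mean and SD of negative controls; strong numbers were not always called active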
The depositor's hits bear a star; x = no result given.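 Rule for the calls: active = z-score from 3 up in half or more of its runs; inactive = the rest.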

canonical_smiles,HIV TAR-Tat,CDC25B CDK2 inh
COCCNC(=O)CSc1cn(CC(=O)N2CCCC2)c2ccccc12,1.28,x
COc1ccc(N2C(=O)C3CC=CCC3C2=O)cc1 (configuration not stated),x,0.46
C=CCN1C(=O)C(O)(CC(=O)c2ccc(C(C)(C)C)cc2)c2ccccc21 (configuration not stated),-0.17,-0.43
CC(C)n1cnc2nc(COc3ccc(NC(=O)COc4ccc(Cl)cc4)cc3)cc(=O)n21,-0.87,-0.03
COC(=O)C1=C(C(=O)OC)SC(=C2C(=S)C(C)(C)Nc3ccccc32)S1,0.87,13.6*
O=S(=O)(c1cccc2cccnc12)N1CCC(N2CCOCC2)CC1,2.26,x
COc1ccc(N2CCN(C(CNS(=O)(=O)c3cc(F)ccc3F)c3ccco3)CC2)cc1 (configuration not stated),1.37,x
O=S(=O)(Nc1ccc(-c2nc3ccccc3[nH]2)cc1)c1ccc(-n2cccn2)cc1,0.76,x
Cc1csc2ncc(C(=O)NCCN3CCN(C)CC3)c(=O)n12,0.61,x
Cc1cc(C(=O)Nc2c(F)cc(F)cc2Br)no1,0.73,-0.15

Additional records.
canonical_smiles,HIV TAR-Tat,CDC25B CDK2 inh
O=C(CSc1cn(CC(=O)N2CCCCC2)c2ccccc12)Nc1ccc2c(c1)OCO2,-0.17,x
O=C1c2ccccc2C(Nc2ccc(Cl)cc2)N1c1cccnc1 (configuration not stated),0.72,1.47
Cc1oc(S(=O)(=O)N2CCOCC2)cc1C(=O)NCCNc1ncccc1C(F)(F)F,x,-0.97
O=S1(=O)C[C@H](NCc2ccc3c(c2)OCO3)[C@@H](S(=O)(=O)c2cccs2)C1,-0.74,-0.66
COc1cccc(OC)c1CN(C)C(=O)c1c(C(F)(F)F)ccnc1OC,x,0.33
O=C1OC(COc2ccc(Br)cc2)CN1c1ccccc1 (configuration not stated),x,-1.42
COc1ccc(-c2c(C#N)c(N)nc3c2CCCCC3)cc1OC,1.14,-0.47
CC1=C(c2ccccc2)S(=O)(=O)N=C1N(C)Cc1ccccc1,0.2,-1.81
CN(Cc1ccccc1)S(=O)(=O)c1ccc2[nH]c(=O)ccc2c1,2.64,x
CC(C)=CCC/C(C)=C/COC(=O)/C=C/c1ccccc1,-0.5,x

Entries of single compounds, looked up by structure. Order of screens: HIV TAR-Tat, CDC25B CDK2 inh
`O=S1(=O)C[C@H](NCc2ccc3c(c2)OCO3)[C@@H](S(=O)(=O)c2cccs2)C1` is entered as -0.74, -0.66
`Cc1oc(S(=O)(=O)N2CCOCC2)cc1C(=O)NCCNc1ncccc1C(F)(F)F` is entered as x, -0.97
`COc1ccc(-c2c(C#N)c(N)nc3c2CCCCC3)cc1OC` is entered as 1.14, -0.47
`O=C1c2ccccc2C(Nc2ccc(Cl)cc2)N1c1cccnc1` (configuration not stated) is entered as 0.72, 1.47
`CC(C)=CCC/C(C)=C/COC(=O)/C=C/c1ccccc1` is entered as -0.5, x

Continuation:
canonical_smiles,HIV TAR-Tat,CDC25B CDK2 inh
O=C1c2ccccc2C(O)(Cc2ccccc2)N1CCCO (configuration not stated),x,-0.18
CC(C)CCNC(=O)c1c(O)c2cccc3c2n(c1=O)CC3,1.31,x
CSc1nc2c(sc3ccccc32)c(=O)n1CCCC(=O)NC1CCCC1,-1.13,-1.83
COc1ccc(NS(=O)(=O)c2cc(-c3cc(C)no3)ccc2C(C)C)c(OC)c1,-0.72,x
CN1CCN(CCCn2nnc3c(=O)oc4ccccc4c32)CC1,1.61,-2.14
CCN(CCS(=O)(=O)N1CCNCC1)S(=O)(=O)c1cc(OC)ccc1OC,3.39,x
COC(=O)c1ccc(C2NC(=O)c3n[nH]c(-c4ccco4)c32)cc1 (configuration not stated),-0.6,-2.17
CC(C)CNC(=S)NCCNC(=O)OC(C)(C)C,x,-2.41
Cc1cccc(Cn2c(C(O)c3ccccc3)nc3ccccc32)c1 (configuration not stated),0.89,-1.4
CCCN1CCN(CCCNC(=O)Cn2cc3c(n2)CCCC3)CC1,x,-0.14

As a short view, some entries already given.
canonical_smiles,HIV TAR-Tat,CDC25B CDK2 inh
O=C1c2ccccc2C(O)(Cc2ccccc2)N1CCCO (configuration not stated),x,-0.18
CC(C)CCNC(=O)c1c(O)c2cccc3c2n(c1=O)CC3,1.31,x
CSc1nc2c(sc3ccccc32)c(=O)n1CCCC(=O)NC1CCCC1,-1.13,-1.83
COc1ccc(NS(=O)(=O)c2cc(-c3cc(C)no3)ccc2C(C)C)c(OC)c1,-0.72,x
CN1CCN(CCCn2nnc3c(=O)oc4ccccc4c32)CC1,1.61,-2.14

(cont.)
canonical_smiles,HIV TAR-Tat,CDC25B CDK2 inh
CN(c1ccc(Br)cc1)c1nc(=O)c2cccnc2s1,x,-0.16
CCCCn1cnc2c(sc3nc4c(cc32)COC(C)(C)C4)c1=O,1.88,-0.31
C=CCN1C(=O)C2(c3ccccc31)c1c(oc3ccccc3c1=O)C(=O)N2CCOC (configuration not stated),1.72,-0.84
Cc1ccc(-c2nc3scc(CCNS(=O)(=O)c4ccc(F)c(C)c4)n3n2)cc1,1.03,x
COc1cc(CSc2ccccn2)cc(OC)c1OC,x,-2.82
CCCSc1nc(NCCCO)c2c3c(sc2n1)COC(C)(CC)C3 (configuration not stated),1.03,-0.47
Cc1ccc(NC(=O)c2ccc(NS(=O)(=O)c3c(C)n[nH]c3C)cc2)cc1,x,-2.11
O=C1Nc2ccccc2SC1c1ccccc1 (configuration not stated),x,-0.51
O=C(NNC(=O)c1ccc2c(c1)OCO2)c1ccc(C(F)(F)F)cc1,x,-0.07
CN(CCNC(=O)c1cc2c(s1)-c1ccccc1OC2)C1CCCCC1,0.18,-0.65

Additional compounds:
canonical_smiles,HIV TAR-Tat,CDC25B CDK2 inh
CCCCCOc1ccc(CN2C(=O)C(=O)c3cc(C)ccc32)cc1,0.78,-1.66
COc1ccc(OC)c(S(=O)(=O)Nc2c(-n3cnnc3)n[nH]c2C)c1,0.01,1.92
CCOC(=O)c1c(C)oc2ncnc(NC(C)(C)CCO)c12,0.23,x
CCC(C(=O)NC1CCCCC1C)n1sc2ccccc2c1=O (configuration not stated),1.52,-0.92
Oc1ccccc1C=Nc1n[nH]c2ccccc12,x,0.7
COc1ccc(N2C(=O)C3ON(c4ccccc4)C(c4cccs4)C3C2=O)cc1 (configuration not stated),1.13,-0.75
Cc1ccc(-c2cn3nc(N4CCCC(C(=O)O)C4)sc3n2)cc1 (configuration not stated),1.25,0.29
COc1ccc(N2CCCS2(=O)=O)cc1NS(=O)(=O)c1c(C)cc(C)cc1C,0.26,x
Cc1nc2nc(NC(=O)C3CCCCC3)[nH]n2c(=O)c1Cl,1.82,-1.54
CCc1nc(-c2nn(-c3ccccc3)c(=O)n(CC(=O)O)c2=O)no1,-0.82,0.02

Further structures follow.
canonical_smiles,HIV TAR-Tat,CDC25B CDK2 inh
COc1ccc(Nc2ncnc3onc(-c4ccc(F)cc4)c23)cc1Cl,0.71,x
O=c1c2ccccc2sc2c(O)ccc(Cl)c12,x,-1.24
CCc1cccc(NS(=O)(=O)c2cn(C)c(C)n2)c1,2.77,x
CCOC(=O)C(C)n1nc(C)n2c(cc3sccc32)c1=O (configuration not stated),1.48,-0.51
O=C(Cc1csc(-c2ccccc2)n1)Nc1nnc(C2CC2)s1,-0.4,-5.23
CCCS(=O)(=O)N1CCCc2ccc(NS(=O)(=O)c3ccc(CC)cc3)cc21,1.43,x
O=C(O)CC(C(=O)Nc1cc(C(F)(F)F)cc(C(F)(F)F)c1)C1=CCCCC1 (configuration not stated),x,-1.49
COc1ccc(N2CCN(S(=O)(=O)c3ccc4c(c3)C(C)(C)C(=O)N4)CC2)cc1,-1.95,x
Cc1cc(C)c2[nH]c(CSc3nnc(-c4ccccc4)n3C)cc(=O)c2c1,-0.54,x
CC(C)c1ccc(-c2csc(Nc3ccc(S(N)(=O)=O)cc3)n2)cc1,x,0.88

Continued.
canonical_smiles,HIV TAR-Tat,CDC25B CDK2 inh
O=C(O)C1CCN(C(=O)c2ccc3nsnc3c2)CC1,x,-1.26
CC(C)NC(=O)Cn1cc(C(=O)C2CCCCC2)c2ccccc21,-0.61,-0.49
CC1=C(c2ccc(C)c(C)c2)S(=O)(=O)NC1=NC1CCCCC1,0.36,-8.28
COc1ccccc1CNC(c1ccc(F)cc1)c1nnc(-c2ccccc2)o1 (configuration not stated),-1.28,x
CN(Cc1ccccc1)c1csc2ccc(Br)cc2c1=O,0.33,x
Cn1c(CSc2ccnc3cc(Cl)ccc23)nnc1SCC(=O)c1ccc(F)cc1,x,-2.26
COc1ccc(-c2cnn3c(-c4ccccc4)cc(C)nc23)cc1OC,0.12,-1.69
O=C(O)CCNc1ccc(Cl)cc1,x,-1.02
COc1cc(CCC(C)NC(=O)Cc2ccccc2)ccc1OC(=O)Cc1ccccc1 (configuration not stated),x,-1.64
Cc1cc2ncc(-c3ccnc(SCC(=O)Nc4cccc(C(F)(F)F)c4)n3)c(C)n2n1,x,-0.59

Following part.
canonical_smiles,HIV TAR-Tat,CDC25B CDK2 inh
NS(=O)(=O)c1ccc(NC(=O)c2csnn2)cc1,-1.9,-1.68
COCCCN1C(=O)C(O)=C(C(=O)c2cc3ccccc3o2)C1c1ccc(OC)cc1 (configuration not stated),0.58,0.24
CCOC(=O)C1=C(O)CSC1=Nc1ccc(F)c(Cl)c1,2.01,x
CCN(CCNc1ncnc2onc(-c3ccc(F)cc3)c12)Cc1ccccc1,-1.01,x
CCCC(C)NC(=O)C1c2ccccc2Oc2ccccc21 (configuration not stated),0.07,-1.34
CCc1c(C)nc2ncnn2c1Sc1ccc(N(C)C)cc1,0.55,x
Cn1c(/C=C/c2ccc(Cl)cc2)c([N+](=O)[O-])c(=O)n(C)c1=O,0.83,-2.1
Cc1cc2c(cc1S(=O)(=O)N1CCCCC1C)OCCN2C (configuration not stated),0.96,x
CC1CN(C2=NC(=O)/C(=C\c3ccc(-c4ccccc4Cl)o3)S2)CC(C)O1 (configuration not stated),x,-3.7
CCC(C)NC(=O)Cn1c2ccccc2c2nc(=O)cc(C)n21 (configuration not stated),1.93,0.43

Next structures.
canonical_smiles,HIV TAR-Tat,CDC25B CDK2 inh
CCN1C(=O)C2(c3ccccc31)C(C(=O)Nc1cccc(Cl)c1)CC1CSCN12 (configuration not stated),0.64,x
O=C1SC(c2ccccc2)=N/C1=C/c1ccc(C(F)(F)F)cc1,x,0.31
O=C(NC1C(=O)NNC1c1ccc(Cl)cc1)c1ccc(Cl)cc1 (configuration not stated),x,-4.58
COc1ccc(S(=O)(=O)n2nc(C)cc2C)cc1OC,1.23,-1.46
Cc1ccc(-n2ncc3c(NCc4ccc5c(c4)OCO5)ncnc32)c(C)c1,1.17,x
COc1nc(N)nc(N)c1S(=O)(=O)c1ccccc1,1.53,-0.63
CS(=O)(=O)CCC(C(=O)Nc1ccc(Cl)cn1)N1Cc2ccccc2C1=O (configuration not stated),0.65,x
CCOc1cc(C(=O)Nc2ccc3c(c2)C(=O)c2ccccc2C3=O)cc(OCC)c1OCC,x,-1.36
Cc1cc(C)n2c(Nc3ccc(Cl)cc3)c(-c3ccsc3)nc2n1,x,2.09
CC(C)NC(=O)N1CCC2(CC1)Nc1cc(F)ccc1-n1cccc12,0.02,x

Next records follow:
canonical_smiles,HIV TAR-Tat,CDC25B CDK2 inh
CCN(C(=O)CS(=O)(=O)c1ccc2c(c1)S(=O)(=O)N=CN2)c1ccccc1,0.24,x
CC1=C(c2ccc(C(C)C)cc2)S(=O)(=O)N=C1N1CCCCC1,0.35,-4.33
CCOC(=O)c1ccc2c(c1)c(C)c(C)n2C,-2.62,-1.12
CC(=O)N1CCC2(CC1)OC(=O)C(C)=C2C(=O)Nc1ccc(F)cc1,2.1,x
COc1ccc2nc(Nc3nc4c(c(=O)[nH]3)CCCC4)nc(C)c2c1,0.11,1.27
CCn1c2ccccc2c2cc(C3C=C(C(=O)O)Nc4ncnn43)ccc21 (configuration not stated),0.37,-0.53
COc1ccccc1N1CCN(S(=O)(=O)c2ccc(Cl)cc2)CC1,x,-1.73
CCOC(=O)c1c(C)[nH]c(C)c1S(=O)(=O)NCC(=O)NCC1CCCO1 (configuration not stated),0.55,x
CC(C)c1ccc(-n2nnc(-c3nc(-c4ccccc4F)no3)c2N)cc1,1.55,x
CC(=O)N1CCc2cc(Br)cc(S(=O)(=O)N3CCC(c4ccncc4)CC3)c21,1.75,x

The list goes on.
canonical_smiles,HIV TAR-Tat,CDC25B CDK2 inh
Cc1cccc(NC(=O)Nc2ccc(Br)cc2)n1,-0.44,-0.48
CC(C)(C)NC(=O)c1ccc(N2C(=O)C(C)(C)CS2(=O)=O)cc1,1.45,-1.19
CCOC(=O)c1c(NC(=O)Cn2cnc([N+](=O)[O-])n2)sc(C)c1C,3.09,x
Cc1nc(C(F)(F)F)c(C(=O)O)cc1-c1nc(-c2ccccc2)cs1,x,-0.64
CCCCn1c(COC)nc2ccccc21,1.08,-0.6
Cn1c(=O)c2ccccc2n2c(CCC(=O)N3CCN(c4cccc(Cl)c4)CC3)nnc12,-1.06,-2.34
O=S(=O)(Nc1ccccc1Sc1c(Cl)cncc1Cl)c1ccc(Cl)cc1,x,-0.63
CSC1=C(C#N)C(c2ccc(Cl)cc2)C(C(=O)OC(C)(C)C)=C(C)N1 (configuration not stated),0.4,-3.3
O=S(=O)(CCc1ccncc1)c1ccc(Cl)cc1,1.34,0.19
O=S1(=O)C[C@H](NCC2CCCO2)[C@@H](S(=O)(=O)c2ccc(Cl)cc2)C1 (some centres not stated),1.4,-0.75

(continued)
canonical_smiles,HIV TAR-Tat,CDC25B CDK2 inh
COC(=O)Cc1cc(=O)n2[nH]cnc2n1,-2.08,-1.95
Cc1ccc(CNc2nc(N3CCOCC3)nc3c2cnn3C)cc1,2.14,x
N#CC(c1ccc2c(c1)OCO2)N(Cc1ccccc1)C(=O)c1sc2ccccc2c1Cl (configuration not stated),x,-9
CCn1c2c(c(=O)[nH]c1=O)C(c1ccc(Br)cc1)C1=C(N2)c2ccccc2C1=O (configuration not stated),-6.92,-2.53
CN(C1CCCC1)C1CCN(c2ccc3nncn3n2)CC1,-0.72,-0.95
